# Screens deposited in PubChem by National Center for Advancing Translational Sciences (NCATS).
# miR-21 FLuc – qHTS Assay for Modulators of miRNAs and/orActivators of miR-21; 340,000 tested, under 10 active; HeLa miR-21 FLuc reporter, luciferase, 48 h; Potency, µM (series often up to 38.3 µM), without a hit: top-dose reporter change, positive = more light; active = well fitted rising curve with a large enough effect; inconclusive = small, poorly fitted or top-dose-only effect; inactive = no such curve, though single readings can be large or run the other way;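 further: % of control where 0% means no effect; miR-21 action dims this reporter so a rising signal means less miR-21 action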
#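 Using DMEM plus 10% FBS, HeLa miR-21-FLuc cells are incubated with test compounds (final up to about 40uM) for 48 hours; firefly luciferase signal is then imaged following reagent-mediated lysis.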
# Rango-impB inh – qHTS Assay for Inhibitors of Rango (Ran-regulated importin-beta cargo) - Importin beta complex formation. Potency, µM (titrated, usually from 92.2 µM), for inactives: at the top dose inhibition of complex formation. AID 540263, 2011. Rango CFP/YFP FRET sensor + importin beta, 45 min. Importin subunit beta-1 (Homo sapiens), Q14974. hit rate 0.031% among 340,000; active = rising FRET ratio curve, often small or poorly fitted; inconclusive = mostly compound fluorescence or quenching in the first reads; inactive = flat curves in all reads;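 further: potency means the concentration at half of the fitted maximal effect; 0% = DMSO wells and 100% = buffer wells lacking importin beta; nearly all actives have a fitted effect of over 15% in size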
# Target sequence (Q14974 whole entry, looked up): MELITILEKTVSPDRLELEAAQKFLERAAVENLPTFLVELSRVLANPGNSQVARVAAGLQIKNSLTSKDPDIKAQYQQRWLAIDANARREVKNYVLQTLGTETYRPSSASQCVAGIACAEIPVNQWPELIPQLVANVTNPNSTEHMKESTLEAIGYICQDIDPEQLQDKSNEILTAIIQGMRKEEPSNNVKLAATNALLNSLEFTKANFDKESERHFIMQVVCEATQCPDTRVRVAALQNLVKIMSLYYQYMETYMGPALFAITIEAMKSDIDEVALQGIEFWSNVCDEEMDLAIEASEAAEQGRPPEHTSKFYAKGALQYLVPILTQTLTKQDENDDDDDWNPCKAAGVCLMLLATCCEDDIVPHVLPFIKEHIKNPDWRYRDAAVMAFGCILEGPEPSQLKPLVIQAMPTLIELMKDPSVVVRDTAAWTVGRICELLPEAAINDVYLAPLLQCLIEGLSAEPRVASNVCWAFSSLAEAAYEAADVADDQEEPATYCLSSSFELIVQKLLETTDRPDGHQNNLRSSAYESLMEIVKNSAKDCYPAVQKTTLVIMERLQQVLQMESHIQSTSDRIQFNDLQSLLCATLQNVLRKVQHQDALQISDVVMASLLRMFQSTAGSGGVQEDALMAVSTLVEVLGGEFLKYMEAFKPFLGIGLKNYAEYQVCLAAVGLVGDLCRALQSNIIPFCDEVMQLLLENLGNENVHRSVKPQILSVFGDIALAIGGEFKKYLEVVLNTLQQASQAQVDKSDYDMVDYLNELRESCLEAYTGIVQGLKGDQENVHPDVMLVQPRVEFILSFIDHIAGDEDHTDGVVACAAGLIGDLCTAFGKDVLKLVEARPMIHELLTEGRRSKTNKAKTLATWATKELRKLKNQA
#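 FRET biosensor (snurportin 1 IBB flanked by EYFP and cerulean), 50 nM, with compound 5 min, then 0.125 microM importin beta in PBS, 1 mM DTT, 0.02% Tween-20, 0.1% BSA. CFP/YFP ratio read after 45 min at room temperature; pre-read flags interference.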
# Rango release inh – qHTS Assay for Inhibitors of RanGTP induced Rango (Ran-regulated importin-beta cargo) - Importin beta complex dissociation. Potency, µM (series often up to 46.1 µM), inactives show top-dose activity change, negative = inhibition. Biochemical FRET Rango-importin beta, RanGTP-induced dissociation. hit rate 0.071% among 340,000; active means falling FRET ratio curve, often poorly fitted, with flat reads before Ran was added; inconclusive means other falling curves, or compound fluorescence or quenching; inactive means flat or rising ratio curve;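 further: potency means the concentration at half of the fitted maximal effect; % of control where 0% means no effect; nearly all actives have a fitted effect of over 45% in size; -100% = wells without RanGTP and RCC1; the record marks most hits as doubtful in a second field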
#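 Rango FRET biosensor (snurportin-1 IBB flanked by N-terminal EYFP and C-terminal CFP10) at 0.1 uM, with 0.25 uM importin beta in PBS, 1mM DTT, 0.02% Tween-20, 0.1% BSA. 0.6 uM Ran, 2mM GTP and 0.2 uM RCC1 were then added for 45 min at room temperature. Inhibition read as loss of FRET rise.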
# GLA inh pH 4.5 – qHTS Assay for Inhibitors of Human alpha-Galactosidase at pH 4.5 | 230,000 tested, under 10 active | activity change, negative = inhibition, % at 105 µM | Alpha-galactosidase A (Homo sapiens), P06280 | purified enzyme, 4-MU-alpha-Gal fluorescence, pH 4.5 | AID 1467, 2008; inconclusive = small, poorly fitted or top-dose-only inhibition, or a rising curve; inactive = flat fitted curve, though single readings scatter; no compound was filed as active;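 further: 0% = full activity with enzyme and -100% = basal without enzyme; dose as in the result columns while the protocol names 77 µM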
# * marks the source's active call; other numbers are inactive results; ? = inconclusive; · = not tested or not shown; & = joins results of further samples. Only part of the results is shown; rates above refer to the full screens.
GLA inh pH 4.5	Rango release inh	miR-21 FLuc	Rango-impB inh	structure
·	6%	1%	0.1%	CCc1ccccc1NC(=O)CN(C)Cc1c(O)ccc2ccccc12
1	5%	-13%	0.9%	O=C(/C=C/c1ccc(Cl)cc1Cl)NCc1ccncc1
-12&-3	·	27%	·	COC(=O)[C@@]1(Cc2ccc(OC)cc2)[C@H]2c3cc(C(=O)N(C)C)n(CCc4ccc(OC)c(Br)c4)c3C[C@H]2CN1C(=O)c1ccccc1
6	·	-9%	·	O=C1CCN(N=Nc2cccc(Cl)c2)N1
-10	1%	-3%&1%	0.0%	CCOC(=O)C1=C(CN2CCCCC2)NC(=O)NC1c1cc(C)ccc1C (centres undefined)
·	7%	0%	-0.2%	Cc1ccc(N2CCN(C(=S)Nc3ccc(Cl)cc3)CC2)cc1
-2	-28%	-6%	0.6%	CN(C)S(=O)(=O)c1cccc(NC(=S)NCCc2ccccn2)c1
·	-4%	3%	?	CC(NC(=O)CSc1ncn[nH]1)c1ccc(Cl)cc1Cl (centres undefined)
-4	10%	?	1.1%	Cc1ccc(NC(=O)c2cc(=O)c3ccccc3o2)cc1S(=O)(=O)N1CCCCC1
-13	-3%	-2%	?	CCOC(=O)c1nnn(-c2nonc2-n2cccc2)c1CN1CCOCC1
·	-1%	-4%	-2.9%	CCc1ccc(NS(=O)(=O)c2c(C(=O)N3CCCCCC3)c(C)n(C)c2C)cc1
·	23%	2%	-0.8%	CCOC(=O)c1sc(NC(=O)c2ccc(=O)[nH]c2)nc1C
-17	6%	0%	-1.4%	O=C1NC(c2ccccc2)=CC(c2ccccc2)N1 (centres undefined)
-5	3%	1%	-0.9%	CCOc1c(Br)cc(CNc2ncn[nH]2)cc1OC
·	1%	-4%	5.0%	CC1=NN(C(N)=S)C(=O)C1N=Nc1ccc(S(N)(=O)=O)cc1 (centres undefined)
-4	13%	-17%	-3.7%	O=C(Nc1cccc(-c2cnc3ccccc3n2)c1)c1ccncc1
·	-11%	·	-1.3%	COc1ccc(NS(=O)(=O)c2cccc(C(=O)NCc3ccco3)c2)cc1
·	16%	·	-2.3%	NS(=O)(=O)c1ccc(CCNC(=O)COC(=O)c2cc([N+](=O)[O-])ccc2N2CCOCC2)cc1
·	-2%	-2%	9.9%	CCOC(=O)c1n[nH]n2c1nc(=S)c1ccccc12
0	14%	-3%	-5.5%	CCN1CCCc2cc(CN(CCN3CCOCC3)C(=S)Nc3ccc(OC)c(OC)c3)ccc21
-10	-4%	-1%	-0.2%	CC(C)(C)NC(=O)COC(=O)c1ccc(Cl)cc1O
-21	?	-6%	?	Cc1cc(N=Cc2c(O)n(-c3ccc4c(c3)OCO4)c(=O)c3ccccc23)ccn1
·	-5%	5%	-0.1%	COCCn1c(SCC(=O)NC2CCCC2)nnc1C(C)C
-8	14%	-3%	-1.3%	CCOC(=O)CSc1nc2sc(C)c(C)c2c(=O)n1C
1	1%	-24%	3.3%	COc1cc(C2N(c3ccccc3)CCN2c2ccccc2)ccc1OC(C)=O
·	-14%	·	6.5%	CC1CCN(C(=O)c2[nH]cnc2C(=O)Nc2ccccc2)CC1
-10	10%	-2%	1.5%	O=C1COc2ccc(C(=O)COC(=O)C3CCN(S(=O)(=O)c4cccs4)CC3)cc2N1
·	13%	0%	-2.1%	Fc1cccc(Cl)c1C1Nc2cccc3cccc(c23)N1
-3	2%	-4%	0.5%	CCN(CC)C(=O)CSc1nnc(-c2ccccn2)n1-c1ccc(C)c(C)c1
-4	-6%	6%	-0.2%	O=C(Nc1cccnc1)c1ccc(COc2ccccc2Br)o1
·	-1%	1%	0.7%	Cc1ccc(C(=O)N/C(=C\c2cn(C)c3ccccc23)C(=O)N2CCN(C)CC2)cc1
3	0%	2%	-3.5%	Cc1ccccc1NC(=O)CN1CCC(NC(=O)Nc2ccccc2)CC1
-5	11%	-2%	1.8%	N#Cc1ccsc1NC(=O)CN(Cc1ccccc1)Cc1ccccc1
3	2%	-5%	-0.1%	Cc1ccc(N2CCN(S(=O)(=O)N(C)C)CC2)c(C)c1
·	18%	-10%	-1.6%	COc1cccc(-c2noc(C3CCCN(C(=O)c4ccccc4OC)C3)n2)c1 (centres undefined)
·	19%	-1%	-0.1%	COc1ccc(NC(=O)CN(C)C(=O)CN2C(=O)c3ccc([N+](=O)[O-])cc3C2=O)cc1
-1	1%	-4%	1.5%	NNC(=O)CNC(=O)c1ccccc1F
·	0%	·	0.0%	Nc1nc(COC(=O)C2CC(=O)N(CCc3ccccc3)C2)nc(Nc2ccccc2)n1 (centres undefined)
-1	7%	-3%	0.2%	Clc1ccc(OCc2nn3c(-c4ccncc4)nnc3s2)cc1
·	2%	-8%	-0.6%	COc1ccc(NC(=O)CSc2ccc(-c3ccco3)nn2)cc1
5	0%	-2%	-0.7%	O=c1[nH]c(Cc2ccccc2)nc2ccccc12
5	-4%	-7%	-0.3%	Cc1cc(C)cc(NC(=S)N2CCC(NC(=O)c3ccccc3C)CC2)c1
-5	?	-2%	0.5%	CC1=C(c2ccc(Cl)cc2)[N+](=O)C(C)(C)N1[O-]
·	-3%	·	-0.5%	Cc1ccc(NC(=O)CSc2nc(=O)n(Cc3ccncc3)c3c2CCC3)c(C)c1
-9	6%	-29%	?	CN(CC(=O)Nc1nc2ccccc2s1)S(=O)(=O)c1ccccc1
-3	5%	0%	0.0%	c1ccc(-c2cc(N3CCCCC3)c3ccccc3n2)cc1
-17	19%	-16%	-0.8%	COC(=O)c1ccc(CSc2nnc(-c3c[nH]c4ccccc34)n2C)o1
-10	-14%	0%	-6.1%	O=C(COC(=O)CNS(=O)(=O)c1c(Cl)cccc1Cl)Nc1ccccc1Sc1ccccc1

# Profiles, quoted from the list. Values in the order: GLA inh pH 4.5 | Rango release inh | miR-21 FLuc | Rango-impB inh
# Clc1ccc(OCc2nn3c(-c4ccncc4)nnc3s2)cc1 is listed with -1 | 7% | -3% | 0.2%
# O=C(COC(=O)CNS(=O)(=O)c1c(Cl)cccc1Cl)Nc1ccccc1Sc1ccccc1 is listed with -10 | -14% | 0% | -6.1%
# O=c1[nH]c(Cc2ccccc2)nc2ccccc12 is listed with 5 | 0% | -2% | -0.7%

# (list continues)
GLA inh pH 4.5	Rango release inh	miR-21 FLuc	Rango-impB inh	structure
-7	4%	13%	-3.6%	O=C(Cc1cccs1)N(c1ccc(Cl)cc1)C1C=CS(=O)(=O)C1 (centres undefined)
·	-16%	·	4.0%	Cc1ccc(-c2nc3ncccc3o2)cc1NC(=O)c1ccco1
7	8%	-2%	-0.4%	COC(=O)Nc1ccc(S(=O)(=O)Nc2ccc(C(=O)O)cc2)cc1
-5	-27%	-14%	?	CCC1=C/C(=C/N(C)c2ccccc2)C(=O)S1
3	-4%	0%	2.5%	CCOC(=O)c1nn(-c2sc(C(=O)OC)c(C)c2C(=O)OC)cc1O
-7	1%	-8%	-4.2%	O=c1c2[nH]c3ccccc3c2ncn1Cc1ccco1
-1	-10%	-9%	-2.3%	COc1ccccc1OCC(=O)Nc1cccc(-c2nc3ccccc3o2)c1
1	-2%	5%	-2.6%	O=C(COC(=O)c1ccc2c(c1)C(=O)N(c1cccc3ncccc13)C2=O)c1ccc(Cl)cc1
-2	-2%	-49%	?	COc1cc(/C=C(\C#N)c2nc3ccc(C)cc3[nH]2)cc([N+](=O)[O-])c1O
-15	-6%	-6%	-0.3%	Cc1[nH]n(-c2ccccc2)c(=O)c1/C=N/O
·	7%	·	5.3%	CS(=O)(=O)N1c2ccccc2[C@]2(Br)C[C@H]3C(=O)N[C@@H](Cc4ccccc4)C(=O)N3[C@H]12
·	-7%	-14%	0.1%	CC(=O)Nc1ccc(NC(=O)C(c2ccccc2)c2ccccc2)cc1
1	-16%	-9%	0.1%	Cc1occc1C(=O)NCc1cccs1
-6	6%	-10%	-1.1%	Cc1oc(-c2ccccc2)cc1C(=O)Nc1ccc(N(C)C)cc1
·	-3%	·	1.2%	Cc1nnc(SCC(=O)N2CCN(C(=O)c3ccco3)CC2)n1C
·	?	·	?	CC1CCN(c2ccc3c(c2)S(=O)(=O)c2ccccc2C3=O)CC1
-8	0%	-2%	-2.6%	Cn1nc(C(C)(C)C)c([N+](=O)[O-])c1C(=O)NCCO
·	-25%	7%	-2.5%	COc1ccccc1NC(=O)c1ccc2c(c1)N(CC#N)C(=O)C(C)(C)O2
1	12%	-4%	0.0%	Cc1ccc(N(CC(=O)N2CC(=O)Nc3ccccc32)S(=O)(=O)c2ccc3c(c2)OCCO3)cc1
1	1%	-43%	4.3%	CC(C)(C)c1ccc(OCC(=O)N2CCCCCC2)c(Br)c1
-14	?	-35%	?	CCOC(=O)/C(C#N)=C\C=C1C=CN(C)C=C1
·	-18%	·	1.0%	CSc1nc(C)cc(OCCNS(=O)(=O)c2ccc(C)cc2)n1
-2	3%	-8%	12%	Cc1ccc(S(=O)(=O)N2CCCCC2)cc1NC(=O)C1CC(=O)N(Cc2ccccc2)C1 (centres undefined)
·	19%	0%	5.1%	Cc1cccc(Cl)c1OCCN1CCCC1

# Pulled by structure from the entries so far (2):
GLA inh pH 4.5	Rango release inh	miR-21 FLuc	Rango-impB inh	structure
·	-18%	·	1.0%	CSc1nc(C)cc(OCCNS(=O)(=O)c2ccc(C)cc2)n1
·	-3%	·	1.2%	Cc1nnc(SCC(=O)N2CCN(C(=O)c3ccco3)CC2)n1C

# The results go on:
GLA inh pH 4.5	Rango release inh	miR-21 FLuc	Rango-impB inh	structure
3	-12%	3%	0.7%	O=C(CN1C(=O)C2C3C=CC(C4CC34)C2C1=O)Oc1ccccc1 (centres undefined)
5	6%	1%	-0.6%	COC(=O)c1ccc(COC(=O)c2cnccn2)cc1
·	9%	·	-0.1%	O=C(OCC(=O)N1CCN(c2ccccc2)CC1)c1nc(Cl)ccc1Cl
-16	-2%	·	-0.7%	CCOC(=O)C1(C)Oc2ccccc2C(C(=O)OC)=C1C(=O)OC (centres undefined)
14	-3%	5%	-3.9%	COCc1cc(C)n(CC(=O)Nc2cccc(C)c2)c(=O)c1C#N
-5&0	?	-1%	?	COc1ccc(C2=CC3=C(Br)C(=O)C(C)(OC(=O)c4ccc(Cl)nc4)C(=O)C3=CO2)cc1 (centres undefined)
1	3%	-5%	-3.3%	O=C(N/C(=C\c1cccc([N+](=O)[O-])c1)C(=O)N1CCCCC1)c1cccs1
6	3%	-9%	-1.3%	CCOc1ccc(-c2nnn(CC(=O)Nc3ccccc3OC)n2)cc1OCC
0	?	12%	?	CCC(O)(CC)C(=O)N/N=C/c1cc(Br)cc(Br)c1O
0	-8%	-5%	-1.2%	CN(CC(=O)Nc1ccc(N2CCOCC2)cc1)CC(=O)Nc1ccc([N+](=O)[O-])cc1Br
-5	-18%	-57%	-0.5%	COc1ccc(NC(=O)c2sccc2C)c([N+](=O)[O-])c1
2	-5%	-41%	-3.4%	CCCNC(=O)c1cc(-c2ccc(Br)cc2)on1
-6	1%	0%	-1.6%	c1ccc(-c2ccc(C3=Nn4c(Cn5nnc6ccccc65)nnc4SC3)cc2)cc1
5	-7%	-2%	-4.0%	Cc1nnc(SCC(=O)n2c3c(c4ccccc42)CCCC3)s1
-4	25%	-38%	1.6%	COc1ccc(NC(=O)CSc2ccccn2)cc1
-9	-1%	-31%	2.2%	COc1ccc2c(c1)CCc1c(C(=O)N3CCc4ccccc4C3)noc1-2
·	1%	·	-1.0%	O=C1CC(=C2c3ccccc3-c3ccccc32)C(=O)N1CCN1CCN(c2cccc(Cl)c2)CC1
-8	7%	-30%	0.2%	Cc1nn(-c2ccccc2)c(C)c1/C=N/O
8	2%	-63%	0.2%	CN(C)c1ccc(-c2nnc(-c3cccs3)o2)cc1
·	0%	-1%&-25%	-0.4%	Cc1cccc(CCNC(=O)CCS(=O)(=O)c2cc3c(cc2Cl)NC(=O)CO3)c1
-9	-24%	4%	-4.1%	COc1cc(/C=N/NC(=O)c2ccncc2)ccc1Oc1ccc([N+](=O)[O-])cn1
